Beta cell apopt: inhibitors of cytokine-induced beta cell apoptosis, primary screen, luminescence; AID 435005, 2010; protection from apoptosis, % (concentration not given with the values); actives 0.8% (n = 300,000); INS-1E cytokine-induced death, ATP luminescence, 48 h; percent of positive-control rescue, neutral wells zero;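 active = all replicates at 75% or more, or half of them and the mean; inconclusive = half reach 75% but not the mean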;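 also: 0% = cytokine-treated negative control wells and 100% = positive control rescue; higher means more ATP so stronger rescue from cytokine killing; wells of about 40 µL received 100 nL stock; the first replicate is given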
MLL AF4-AF9 inh: inhibitors of AF4 peptide binding to AF9, primary screen, biochemical, AlphaScreen, biotin-AF4 peptide, FLAG-AF9, single point; Protein AF-9 (Homo sapiens), P42568; inhibition, % at 10 µM; actives 0.47% (n = 350,000);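 active = every replicate reaching a set inhibition limit, whatever the replicate mean, cut at about 25% in these data; inconclusive = mean inhibition reaches that limit but some replicates miss it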;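 also: 0% = plate neutral control median and 100% = total signal loss; the record names both 10 and 1 µM as test concentration; the first replicate is given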
Target sequence (P42568 whole entry, looked up): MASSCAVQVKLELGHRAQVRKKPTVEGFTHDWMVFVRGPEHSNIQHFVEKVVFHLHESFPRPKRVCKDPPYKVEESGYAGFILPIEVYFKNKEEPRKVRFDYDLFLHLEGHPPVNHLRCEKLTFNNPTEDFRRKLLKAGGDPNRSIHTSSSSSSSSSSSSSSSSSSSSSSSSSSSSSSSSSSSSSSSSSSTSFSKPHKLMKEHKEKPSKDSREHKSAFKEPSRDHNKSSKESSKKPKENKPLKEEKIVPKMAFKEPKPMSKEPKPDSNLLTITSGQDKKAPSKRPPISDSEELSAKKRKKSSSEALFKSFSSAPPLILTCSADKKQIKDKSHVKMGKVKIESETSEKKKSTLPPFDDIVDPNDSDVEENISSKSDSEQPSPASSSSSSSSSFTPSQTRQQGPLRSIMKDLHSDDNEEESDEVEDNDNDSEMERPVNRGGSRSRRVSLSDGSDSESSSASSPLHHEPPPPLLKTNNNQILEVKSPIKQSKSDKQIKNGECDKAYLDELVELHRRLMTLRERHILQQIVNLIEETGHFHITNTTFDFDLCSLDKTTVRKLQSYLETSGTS
rRNA inh HTS: reduced GFP signal of wild-type E. coli, primary screen, bacterial rRNA inhibitor project, GFP/RFP fluorescence, OD600, single point. E. coli WT GFP vs humanized-ribosome RFP mutants, 24 h; active compounds read low; DMSO median 0, no signal -100. actives 1.6% (n = 350,000). AID 720706, 2013. GFP signal change (wild-type ribosome), % (concentration not given with the values);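 active = significant combined selectivity score with lowered wild-type GFP, culture density cut under 30%, mutant RFP and density less affected; inactive = any of these conditions unmet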; also: one replicate is shown; some compounds called inactive have numbers as strong as hits
FGF22 binding: binders of human FGF22 protein, primary screen, FGF22 synaptogenesis inhibitor project, biophysical, thermal shift, single point; actives 1.5% (n = 340,000); calls only at 9.99 µM; AID 651658, 2012; recombinant FGF22 thermal shift, SYPRO orange fluorescence; percent of sucrose octasulfate shift, DMSO zero; Fibroblast growth factor 22 (Homo sapiens), Q9HCT0;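 active = melting point raised past a set limit in the mean and every replicate; inconclusive = no clear call; three in four hits are not shown here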
Target sequence (Q9HCT0 whole entry, looked up): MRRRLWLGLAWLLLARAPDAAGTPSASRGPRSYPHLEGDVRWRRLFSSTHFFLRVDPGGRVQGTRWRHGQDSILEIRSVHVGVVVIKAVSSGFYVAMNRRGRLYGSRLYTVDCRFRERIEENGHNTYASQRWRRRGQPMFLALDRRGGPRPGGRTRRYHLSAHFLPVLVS
RanGTP-Imp inh: inhibitors of RanGTP-importin-beta interaction, primary screen, biochemical, FRET, CFP-Ran, YFP-importin-beta, homogeneous; Ran GTPase (GTP-bound) - importin-beta complex; cell-free CFP-Ran/YFP-importin-beta FRET ratio; inhibition, % (no concentration beside the values); actives 1.1% (n = 300,000); AID 2216, 2009;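 active = most replicates above 15%; inconclusive = exactly half above 15%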;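 also: 0% = DMSO wells and 100% = Ran loaded with GDP instead of GTP; wells of about 40 µL received 100 nL stock; the first replicate is given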
T cruzi repl: inhibitors of intracellular T. cruzi growth, primary screen, luminescence, NIH3T3 host cells | actives 1.4% (n = 300,000) | T. cruzi beta-gal in NIH3T3, 90 h | inhibition, % (no concentration beside the values) | AID 1885, 2009;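 active = mean inhibition across valid replicates above about 55%, limit read from the data; inconclusive = mean below that limit but half or more replicates reach it; inactive = mean below it, under half of replicates reach it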;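 also: signal also drops with host cell toxicity which is not excluded here; 0% = plate median of DMSO wells and 100% = zero luminescence signal; higher percent means less beta-gal luminescence so fewer parasites; stock transfer was 50 nL into about 50 µL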
Calb FLC: C. albicans growth inhibition with fluconazole, primary screen, CaCi-2 strain, Alamar Blue fluorescence; C. albicans CaCi-2 (fluconazole-resistant clinical isolate) + fluconazole, 48 h; actives 0.57% (n = 300,000); growth inhibition, % (concentration not given with the values);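 active = most replicates above 75%; inconclusive = exactly half above 75%; inactive = most below 75%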;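 also: all wells also contain fluconazole at 8 µg/ml as a sub-toxic cotreatment; 0% = median of DMSO wells and 100% = median of geldanamycin control wells; wells of about 8 µL received 7.5 nL stock; the first replicate is given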
ALR H2O2 inh: inhibitors of human ALR sulfhydryl oxidase, primary screen, biochemical, H2O2 detection, HRP-luminol luminescence, single point; FAD-linked sulfhydryl oxidase ALR (Homo sapiens), P55789; purified ALR, DTT oxidation; inhibition, % (concentration not given with the values); actives 3.8% (n = 290,000); AID 485317, 2010;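 active = mean and each replicate at 75% or more; inconclusive = only one of the two met; inactive = neither met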;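 also: stock transfer was 7.5 nL into about 7.5 µL; 0% = neutral wells and 100% = wells with inactivated enzyme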
Target sequence (P55789 whole entry, looked up): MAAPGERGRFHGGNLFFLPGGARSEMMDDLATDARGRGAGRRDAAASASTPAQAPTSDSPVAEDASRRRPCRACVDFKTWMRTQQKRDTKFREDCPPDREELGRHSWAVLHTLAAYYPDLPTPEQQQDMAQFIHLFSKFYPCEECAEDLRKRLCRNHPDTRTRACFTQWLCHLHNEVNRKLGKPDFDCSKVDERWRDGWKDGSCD
rRNA inh HTS OD600: further read-out of rRNA inh HTS, marked with its call; OD600 change, %; measured here: OD600 growth;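 optical density of the mix in the first replicate; 0 = DMSO median and -100 = no signal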
rRNA inh HTS RFP: also measured in rRNA inh HTS; calls as there; RFP signal change, %; measured here: RFP humanized mutant strains;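 first replicate; 0 = DMSO median and -100 = no signal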
Numbers without * were called inactive; i = inactive; ? = inconclusive; . = no result given. These rows are one share of the data. The share of hits here may be higher or lower than overall.

SMILES | Beta cell apopt | MLL AF4-AF9 inh | rRNA inh HTS | rRNA inh HTS OD600 | rRNA inh HTS RFP | FGF22 binding | RanGTP-Imp inh | T cruzi repl | Calb FLC | ALR H2O2 inh
CCOC(=O)CNC(=O)Cn1cnc2c(nnn2-c2cccc(Cl)c2)c1=O | -4 | . | . | . | . | . | 0.6 | -18 | -17 | -8
CCOc1ccc(S(=O)(=O)N(CC(N)=O)c2ccc(C)cc2)cc1 | -3 | . | . | . | . | . | ? | -2 | -2 | 4
O=C(NCCCc1ccccc1)C1CCC(=O)N(CCc2ccc(Cl)cc2)C1 (stereo not drawn) | -1 | 1.4 | -11 | -28 | 0.0 | i | 3.9 | -9 | -11 | 1
COc1cccc(/C=C2\SC(=O)N(CCC(=O)NCCCn3ccnc3)C2=O)c1 | 33 | 2.6 | -5 | -13 | 3.0 | i | -1.2 | -2 | -8 | 11
CCOc1ccc(-c2cn(-c3ccccc3OC)c(=S)[nH]2)cc1 | 2 | 7.0 | 2 | 2 | -0.7 | i | 8.0 | 24 | 1 | -8
COC(=O)c1ccc[n+](CC(=O)Nc2ccc(OC(F)F)cc2)c1 | -6 | -0.8 | 17 | 11 | 2.3 | i | 4.4 | -7 | 2 | .
CCO[C@H]1OC(C(N)=O)=C[C@@H](C)[C@@H]1CCCO | 3 | -0.2 | 8 | 7 | -2.3 | i | -3.9 | -15 | -3 | 0
O=C(c1ccc(CS(=O)Cc2ccccc2Cl)o1)N1CCN(c2ccccn2)CC1 (stereo not drawn) | -3 | -3.6 | -2 | -18 | -7.2 | i | 4.2 | 17 | 8 | 99*
COc1ccc(COC(=O)c2ccc(C)c(S(=O)(=O)N3CCOCC3)c2)cc1F | 1 | 0.1 | -22 | -22 | -0.8 | i | 0.4 | -1 | 3 | -24
CC12CCC(C(=Nc3ccc(N=C4C(=O)C5(C)CCC4C5(C)C)cc3)C1=O)C2(C)C | -2 | . | . | . | . | . | 1.5 | -20 | -2 | -1
OCCN(Cc1ccccc1)Cc1nc(CC2CC2)no1 | -4 | -12 | 1 | 5 | -2.1 | i | 3.2 | -16 | 18 | -2
O=C(CCc1nnc(Cc2cccc(C(F)(F)F)c2)o1)NCC(F)(F)F | -3 | -4.5 | 20 | 7 | -1.8 | i | 0.7 | -2 | -18 | .
Cc1nc(SCC(=O)c2cccs2)c2oc3ccccc3c2n1 | -5 | . | . | . | . | . | -1.6 | 11 | 9 | 34
CCOC(=O)C1CCCN(C(=O)CS(=O)(=O)Cc2ccccc2)C1 (stereo not drawn) | -4 | . | . | . | . | . | 2.0 | -8 | 0 | -1
O=C(CSc1nnc(-c2cccnc2)n1Cc1ccco1)c1ccccc1 | 4 | . | . | . | . | . | -7.8 | -7 | -2 | 74
CCn1c(SCc2nc3ccccc3[nH]2)nnc1-c1ccncc1 | 0 | . | 16 | 8 | 2.8 | . | ? | -19 | 8 | -28
Cc1c(C)c2ccc(OCC(=O)N[C@@H](Cc3c[nH]c4ccccc34)C(=O)O)cc2oc1=O | . | -0.1 | . | . | . | i | -0.5 | -12 | -9 | 17
CC(C)(Oc1ccc(Cl)cc1)C(=O)NCc1ccc(S(N)(=O)=O)cc1 | 2 | -1.8 | -2 | 3 | 0.0 | i | . | -7 | 14 | -2
CC(=O)c1sc(NC(=O)c2ccccc2C)nc1C | 12 | -1.4 | 16 | 15 | -2.7 | i | 2.8 | -12 | 0 | -4
COCCCNC(=S)N1CCC(C(=O)c2ccc(Cl)cc2)CC1 | 8 | -1.3 | -7 | -4 | -1.3 | i | -0.7 | 2 | -5 | .
CCc1cc(OCCN2C(=O)NC(C)(C)C2=O)ccc1Cl | -4 | . | . | . | . | . | 2.4 | 11 | 0 | -7
O=C(Nc1ccc(Cl)c(Cl)c1)OCCNC(=O)c1cccc(Cl)c1 | -6 | . | . | . | . | . | 2.7 | -3 | -2 | -13
NC(=O)C1=C[C@@H](c2ccc(Br)cc2)C[C@@H](OCc2ccc(CO)cc2)O1 | -5 | -4.8 | -52 | -78 | -30 | i | 0.7 | 0 | 5 | .
CCOc1ccccc1NC(=O)c1oc2ccccc2c1NC(=O)C1CC1 | 5 | -0.1 | . | . | . | i | ? | 6 | -2 | -18
COCCCNC(=S)NNC(=O)c1ccccc1Br | -2 | -5.2 | 28 | 25 | 2.6 | i | 6.1 | 0 | 0 | 17
Next structures
SMILES | Beta cell apopt | MLL AF4-AF9 inh | rRNA inh HTS | rRNA inh HTS OD600 | rRNA inh HTS RFP | FGF22 binding | RanGTP-Imp inh | T cruzi repl | Calb FLC | ALR H2O2 inh
CC(NC(=O)c1cccc(S(=O)(=O)N2CCN(C)CC2)c1)c1ccc(Cl)cc1Cl (stereo not drawn) | 0 | 12 | 10 | 13 | 3.6 | i | 0.9 | 5 | -2 | -4
Cc1cc(=O)n(Cc2ccccc2)c(O)c1C#N | -1 | -4.3 | 3 | 6 | 11 | i | -4.6 | -16 | 9 | -8
COc1ccc(C(O)P(=O)(OCCC(C)C)c2ccc(N(C)C)cc2)cc1OC (stereo not drawn) | -4 | 2.4 | 2 | 2 | 2.3 | i | 3.4 | -2 | 1 | -3
CCOC(=O)c1sc2c(c1C)c(=O)n(Cc1ccccc1)c(=O)n2CCN(C)C | -1 | 21 | -7 | -18 | 5.8 | i | 3.5 | 59* | 9 | .
O=C(N/N=C/c1cc(Cl)ccc1O)c1cccnc1 | 86* | 8.3 | -22 | -5 | -1.1 | i | 9.3 | 0 | 20 | .
O=C(NC1CCCCC1)c1sc(=S)n2c1[nH]c(=O)c1ccccc12 | 2 | . | . | . | . | . | ? | -17 | -9 | 97*
Cc1ccc(C)c(N(CC(=O)NCCC2=CCCCC2)S(C)(=O)=O)c1 | 2 | . | . | . | . | . | -3.2 | -5 | -5 | -5
COc1ccc(S(=O)(=O)N2CCOC2CNC(=O)C(=O)NCCN(C)C)cc1 (stereo not drawn) | -2 | 1.3 | 11 | 22 | 1.2 | i | ? | -13 | 6 | 2
COc1ccc(N2CCN(c3oc(Cc4ccccc4)nc3C#N)CC2)cc1 | 0 | . | . | . | . | . | ? | 7 | -4 | 2
COc1cccc(-n2cc(CNCc3cn(C)nc3-c3ccccc3F)cn2)c1 | -1 | 0.4 | 0 | -7 | 45 | i | 64* | 0 | 1 | .
CNC(=S)N(Cc1ccc(OC)cc1)Cc1cc2ccc(C)cc2[nH]c1=O | -1 | -0.3 | 11 | 8 | 6.7 | i | -3.3 | 5 | 11 | 11
COc1ccc(CNC(=O)CCNC(=O)N2CCn3c2nc2ccccc23)cc1 | -3 | 1.2 | -1 | -4 | -3.9 | i | 4.2 | 3 | -5 | 69
CCCn1c(SCC(=O)c2c(N)n(C3CC3)c(=O)[nH]c2=O)nnc1-c1ccncc1 | -1 | 1.2 | 14 | 12 | 0.0 | i | . | . | . | 0
COc1cc(/C=C(\C#N)C(=O)Nc2cc(C(F)(F)F)ccc2Cl)ccc1OCC(=O)Nc1cccc(C(F)(F)F)c1 | -1 | -12 | 2 | 9 | -6.7 | i | -13 | -4 | -13 | 33
COc1ccc(C2C(C(N)=O)=C(C)Nc3ncnn32)cc1 (stereo not drawn) | . | . | . | . | . | . | -0.5 | -17 | 8 | -8
O=C(Nc1nccs1)c1cc(Cl)nc2ccccc12 | -6 | -2.3 | 13 | 5 | 1.2 | i | 5.0 | -6 | -13 | -6
O=C(CN(Cc1ccco1)C(=O)CNS(=O)(=O)c1ccc(Cl)cc1)NC1CCCCC1 | . | . | . | . | . | . | ? | 8 | 0 | 3
COc1cc(CNc2ccc3[nH]c(=O)[nH]c3c2)ccc1OCc1cccc(C)c1 | -2 | 6.1 | -14 | -7 | 1.2 | i | 6.2 | 22 | 0 | 34
COC(=O)c1c(C(C)=O)cnc2ccc(Br)cc12 | -4 | . | . | . | . | . | -5.3 | 0 | 37 | -4
COc1ccc2[nH]c3c(=O)n(Cc4ccc(C(=O)N5CCCCCC5)cc4)c(=S)[nH]c3c2c1 | -4 | 0.5 | 10 | 10 | 1.8 | i | ? | 8 | -7 | .
O=C(Cn1c(CCCO)nc2ccccc21)Nc1ccccc1-c1ccccc1 | -3 | 0.0 | . | . | . | . | 1.6 | 1 | -2 | -11
Cc1ccc(OCCn2cc(C(=O)O)c3ccccc32)cc1 | . | -0.2 | 2 | 5 | -0.3 | i | -1.6 | -3 | -5 | 6
CCN(CC)Cc1cc(C(=O)O)c(C)o1 | -1 | -1.2 | 15 | 22 | 4.3 | i | -3.2 | -7 | 2 | -16
Cc1ccccc1OCC(=O)Nc1cccc(Cl)c1C | -2 | -2.6 | 20 | 12 | 3.3 | i | 0.3 | -16 | -6 | 1
CN(C)c1ccc(/C=C2\SC(=O)N(CC(O)Cn3c4ccccc4c4ccccc43)C2=O)cc1 (stereo not drawn) | 12 | . | . | . | . | . | -9.9 | 22 | -94 | -7
(listing goes on)
SMILES | Beta cell apopt | MLL AF4-AF9 inh | rRNA inh HTS | rRNA inh HTS OD600 | rRNA inh HTS RFP | FGF22 binding | RanGTP-Imp inh | T cruzi repl | Calb FLC | ALR H2O2 inh
CC1=C(C(=O)OC2CCCCCCC2)C(c2ccc(O)cc2)NC(=O)N1 (stereo not drawn) | -4 | 9.8 | -43* | -27* | -2.4* | i | -6.6 | 12 | -3 | 5
CC(C)Cn1nc(NC(=O)c2cccs2)c2cc3ccccc3nc21 | 7 | -6.6 | 1 | 1 | -0.1 | i | 64* | 11 | 9 | .
O=C(CSc1ccc(-c2cccnc2)nn1)Nc1ccc(Br)cc1 | -4 | -1.5 | . | . | . | i | 3.2 | -8 | -1 | -3
O=[N+]([O-])c1ccccc1S(=O)(=O)Nc1ccc(S(=O)(=O)N2CCOCC2)cc1 | 2 | -2.4 | 4 | 10 | -2.6 | i | 0.6 | -8 | -3 | 1
CCCn1c(N)c(C(=O)CSc2nc(C)nc3sc(C)c(C)c23)c(=O)[nH]c1=O | -5 | -0.5 | 4 | 5 | -3.6 | i | -1.8 | -6 | -3 | -6
O=C(OCc1cc2ccccc2[nH]c1=O)c1ccncc1 | 0 | . | . | . | . | . | -0.1 | 2 | -1 | 1
Cc1cccc(N2CCN(C(=O)c3cc(S(=O)(=O)N4CCOCC4)cn3C)CC2)c1C | -4 | 1.5 | -1 | -15 | 4.1 | i | -3.0 | 5 | -3 | -6
O=C(O)Cc1cn(Cc2cccc(Cl)c2)c2ccccc12 | 0 | 1.8 | 3 | 2 | -1.6 | i | -1.4 | -9 | 2 | 43
COCCN1C2=C(C(=O)CC(C)(C)C2)C(c2ccc(OC)c(OC)c2)C2=C1CC(C)(C)CC2=O | . | -6.9 | 22 | 16 | 1.1 | i | 2.8 | -2 | 1 | -8

Screening results deposited in PubChem BioAssay by Broad Institute.
